Screening results: PubChem BioAssay, PCMD
Biofilm kill mix: mixtures killing C. albicans biofilm; AID 1242; inhibition, % at 7.6 µM; hit rate 0.02% among 120,000; C. albicans biofilm persisters + clotrimazole, fluorescence viability; primary screen in compound mixtures of four per well;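 active = inhibition above 30.3% in the primary screen of four-compound pools, then above 30% when the compound was retested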;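 note: compounds exposed to preformed 24 h biofilms for 48 h; the number belongs to the whole pool; some results filed as inactive read as strong as hits; inactives centre near 12; 0% = biofilm with clotrimazole alone and 100% = kill control; retested singly at about 60 µM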
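System: C. albicans CAF4-2 wild-type biofilms; Medium: RPMI/MOPS medium, pH 7.0; Reagent: Clotrimazole, 50 µg/mL; Times: biofilm formation 24 h, compound exposure 48 h, 37 °C; Detection: 2-h Alamar Blue fluorescence, 535/590 nm excitation/emission; Evaluation: percent inhibition of biofilm viability.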
Active calls of the source: *. Not all compounds are listed. The share of hits here may be higher or lower than overall.

compound	Biofilm kill mix
Cc1noc(C)c1C(=O)NCc1ccccc1F	-1.7
CCOC(=O)C1=C(C)N(CC(C)C)C(=O)/C1=C\c1cccs1	13.6
COc1ccc(Cc2noc(CN3CCN(Cc4cccc(Cl)c4)CC3)n2)cc1OC	9.6
CCOc1ccc(NC(=O)CCSc2ccc(C)cc2)cc1	17.6
CN(CC(=O)Nc1ccccc1Cl)C(=O)CSc1nc2ccccc2s1	-5.1
CC(C)=CC(=O)OCc1cc([N+](=O)[O-])cc2c1OCOC2	7.8
N#Cc1nc(COc2ccccc2Cl)oc1N1CCCC1	18.7
O=C1COc2ccc(C(=O)CCl)cc2N1	14.8
CC1(C)CC(=O)c2sc(NS(=O)(=O)c3ccc(Br)cc3)nc2C1	2.4
Cc1cc2c(cc1S(=O)(=O)Nc1cccc(F)c1C)NC(=O)CO2	15.8
CCOC(=O)CN1C(=O)CSc2ccc(S(=O)(=O)N3CCCC3)cc21	7.6
O=C(Nc1ccc(Cl)cc1Cl)NC1CCCC1	13.1
O=C(Nc1nc2ccc(F)cc2s1)c1cccc(S(=O)(=O)N2CCc3ccccc32)c1	7.0
NC(=S)N=Nc1c(O)n(Cc2ccccc2)c2ccccc12	22.0
O=C(CCCn1c(=O)c2sccc2n(CC(=O)NCC2CCCO2)c1=O)NCc1ccco1 (centres undefined)	9.8
NNC(=O)c1cc2ccccc2cc1O	15.1
COc1ccc(Cl)cc1NC(=S)N(CCCN1CCOCC1)Cc1cn(C)c2ccccc12	19.1
O=C1OC2(CCCC2)OC(=O)C1=Cc1c[nH]c2ccccc12	12.4
CCOC(=O)CC(NC(=O)Cn1nnc(-c2ccccc2Cl)n1)c1ccc(OC)cc1 (centres undefined)	-0.7
COCCn1c(Cc2ccccc2)nnc1SCC(=O)Nc1ccccc1	10.3
Cc1ccccc1SCC(=O)OCC(=O)Nc1ccc(N(C)C)cc1	15.8
Cc1nc(NC(=O)/C=C/c2ccc(Cl)cc2Cl)sc1C(=O)N(C)C	22.0
COc1cc(C2C3=C(CC(C)(C)CC3=O)NC3=C2C(=O)c2ccccc23)ccc1O (centres undefined)	7.0
COc1ccc(NC(=O)CSCc2ccccc2C)cc1	6.2
CCN(CC(=O)Nc1ccc(NC(C)=O)cc1)C(=O)/C=C/c1cccs1	19.4
CCOc1ccc(CCNC(=O)C2=C(C)C(=O)OC23CCCCC3)cc1OCC	10.9
CC(Sc1nnc(NCc2ccccc2)s1)C(=O)Nc1ccc2c(c1)C(=O)c1ccccc1C2=O (centres undefined)	-0.3
Cc1ccc(N=C2NC(=O)CC(C(=O)Nc3ccc4c(c3)OCO4)S2)cc1 (centres undefined)	13.9
Cc1ccc(NC(=O)C2C3CCCC2C3c2ccccc2)c(C)c1 (centres undefined)	6.2
S=C1NC[C@H](CC2CCCCC2)N1CCc1cccc2ccccc12	14.0
O=C(NNS(=O)(=O)c1ccccc1[N+](=O)[O-])c1cccnc1	3.7
CCCCNC(=O)N1CCN(C(=O)c2ccco2)CC1	2.5
CC12CCC(C/C1=N\N=C1\NC(=O)/C(=C\c3cccc(Br)c3)S1)C2(C)C (centres undefined)	13.4
O=C(CNc1ccc2ccccc2c1)N/N=C/c1ccc([N+](=O)[O-])o1	5.4
CSc1nnc(C)c(/C=C/Nc2ccc(F)cc2F)n1	10.2
CCOc1ccc(C(=O)NC(=S)Nc2cccc(S(=O)(=O)NC3=NCCC3)c2)cc1	18.1
COc1ccccc1NS(=O)(=O)c1cc(N2Cc3ccccc3C2=N)ccc1N1CCOCC1	2.3
CC(C)CSc1ccc(S(=O)(=O)NCC(=O)O)cc1[N+](=O)[O-]	18.8
COc1cc(OC)cc(C(=O)NCc2ccc3c(c2)cc(C)n3C)c1	8.6
C=C(CC)C(=O)c1ccc(OCC(=O)O)c(Cl)c1Cl	10.5
CN(/N=C/c1ccco1)C1=NS(=O)(=O)c2ccccc21	12.0
Cn1c(=O)c2cnc(-c3ccc(C(F)(F)F)cc3)nc2n(C)c1=O	23.7
CC(C)N1C(=O)CCC1C(=O)N1CCN(c2ccc(F)cc2)CC1 (centres undefined)	14.0
COC(=O)CC1C(=O)NCCN1C(=S)NC(=O)C(c1ccccc1)c1ccccc1 (centres undefined)	13.8
O=c1[nH]cnc2sc3c(c12)CCCCC3	10.8
COc1nccc(C(F)(F)F)c1C(=O)NC(=O)Nc1c(C)cccc1C	13.4
C/C=C(/C)C(=O)O[C@@H]1[C@H](OC(C)=O)c2c(ccc3ccc(=O)oc23)OC1(C)C	7.1
COc1ccc(/C=C/C(=O)NC(=S)NNC(=O)c2cc(OC)c(OC)c(OC)c2)cc1	5.8
CCOC(=O)c1csc(NNC=O)n1	6.2
CN(CCNC(=O)CN1C(=O)CSc2ccc(S(=O)(=O)N3CCCC3)cc21)Cc1ccccc1	16.2

Next section.
compound	Biofilm kill mix
Cc1ccc(C)c(NC(CC(=O)c2ccccc2)C(=O)OCC(=O)c2cccs2)c1 (centres undefined)	10.4
O=c1[nH]c(SCCN2CCOCC2)nc(O)c1-c1ccccc1	9.5
O=C(O)c1cc(Br)ccc1NN=C1CCCCC1	20.5
CCOC(=O)C1(Cc2ccccc2)CCN(Cc2cccn2-c2nccs2)CC1	16.8
Cc1ccc(N=C2NC(=O)/C(=C/c3cn(C)c4ccccc34)S2)cc1C	6.1
COc1ccc(/C=C/C(=O)Nc2ccc(OC)cc2[N+](=O)[O-])cc1	23.2
CNC(=S)N/N=C/c1ccc2c(c1)OCCO2	4.2
Cc1sc2ncnc(NC3CCN(Cc4ccccc4)CC3)c2c1C	6.5
CN(C)CCn1c2ccccc2c2nc3ccc([N+](=O)[O-])cc3cc21	11.0
COc1ccnc(CSC(N)=Nc2ccccc2C(F)(F)F)c1	8.4
COC(=O)C1=C(C(=O)OC)N2C=CC=CC2(C)C(C(=O)OC)=C1C(=O)OC (centres undefined)	-10.4
CC(C)(C)c1ccc(CN2C3=NCCCN3c3ccccc32)cc1	3.2
COc1ccc(N2CCN(C(=O)Nc3ccccc3C)CC2)cc1	16.7
O=C(Nc1ccc2c(c1)OCO2)c1cc(-c2cccnc2)nc2ccccc12	12.2
Cc1ccc(NC(=O)CN(C)C(=O)c2ccc(S(=O)(=O)N(C)c3ccccc3)cc2)cc1	10.9
CCCCNS(=O)(=O)c1ccc(NC(=O)C2CCCO2)cc1 (centres undefined)	-5.8
O=C(Cn1nnc2ccccc21)c1ccc(Cl)cc1	12.0
Cc1ccc(C(=O)c2cc([N+](=O)[O-])ccc2N2CC(C)OC(C)C2)cc1 (centres undefined)	12.5
O=C(CCSc1ccccc1)NCCSCc1ccccc1	9.1
CC(C)NC(=O)c1ccccc1NC(=O)Cc1ccc([N+](=O)[O-])cc1	13.6
COc1ccc(/C=N/Nc2nonc2N)c(OC)c1	1.4
Cc1ccc2nc(/C(C#N)=C\c3ccc(Oc4ccc(C(F)(F)F)cc4[N+](=O)[O-])cc3)[nH]c2c1	14.1
COc1ccccc1N1CCN(C2CC(=O)N(C)C2=O)CC1 (centres undefined)	13.8
CCc1cccc(NC(=S)N(CCN(C)C)C(C)c2ccncc2)c1 (centres undefined)	18.0
O=C(Nc1cc(C(F)(F)F)ccc1-n1cnc2ccccc21)c1ccccc1	11.6

Next part:
compound	Biofilm kill mix
CCN(CC(O)CON=C1c2ccccc2-c2ccccc21)S(=O)(=O)c1ccc(C)cc1 (centres undefined)	-0.8
O=C(O)c1cc(N/N=C2/CC(c3ccccc3)Oc3ccccc32)ccc1Cl (centres undefined)	9.0
CCn1ncc(Br)c1C(=O)Nc1ccc2c(c1)OCCO2	19.8
O=C(Cn1nnc2ccccc21)OCC(=O)c1ccc(Cl)c(Cl)c1	-6.5
CC(OC(=O)c1ccccc1)C(=O)NCCC1=CCCCC1 (centres undefined)	9.9
CCCCC(CCC(=O)Nc1cc([N+](=O)[O-])ccc1O)C(=O)O (centres undefined)	12.0
O=C(Nc1nc2cc3c(cc2s1)OCO3)c1ccco1	12.1
O=C(Oc1ccccc1)N(c1ccccc1)c1ccccc1	3.3
COc1cc(NC(=O)c2ccc([N+](=O)[O-])cc2)c(OC)cc1NC(=O)CC(C)C	13.8
CCCN(CCC)C(=O)CSc1nc2c(sc(=S)n2-c2ccc(OCC)cc2)c(=O)[nH]1	12.3
O=S(=O)(Nc1ccc(O)c(Sc2nc3ccccc3s2)c1)c1cccc2ccccc12	8.9
CC(C)(C)NC(=S)N/N=C\c1ccc(-c2ccc([N+](=O)[O-])cc2)o1	13.0
O=C(C1=C[C@H](c2ccc(C(F)(F)F)cc2)C[C@H](OCc2ccc(CO)cc2)O1)N1CCCCCCC1	17.8
Cc1ccc(C2C(C(=O)c3ccco3)=C(O)C(=O)N2c2ncccn2)cc1 (centres undefined)	17.7
COc1ccc(NC(=O)Cn2c(=O)n(CC3CCCO3)c(=O)c3ccccc32)c(OC)c1 (centres undefined)	18.1
COc1cccc(-c2cc(=O)c3cc(NC(=O)c4ccc(Cl)cc4)ccc3[nH]2)c1	6.5
CCc1cc2c(nc1CC)CCN(CC/C(C)=N/OC[C@H]1O[C@H](c3ccccc3)C=C[C@@H]1Oc1ccc(OC)cc1)C2	4.8
COc1ccc(C2=NNC(c3ccco3)=Nc3ccc(F)cc32)cc1	15.0
COc1ccc(C(=O)NNC(=O)c2ccccn2)cc1	-2.2
CCCCOC(=O)Nc1ccc(N2CCOCC2)cc1	10.5
O=C1Nc2cc(Cl)c(Cl)cc2N(O)N1c1ccccc1Cl	16.7
Cc1ccc2nc(N(CCCN(C)C)C(=O)c3ccc4c(c3)CCCC4)sc2c1	1.3
Cc1nnc(SCc2cccc3ccccc23)n(N)c1=O	11.7
COc1ccc(-c2csc(N(C)C(=O)c3cccs3)n2)cc1	18.2

Entries above with an NH in an aromatic ring:
compound	Biofilm kill mix
O=C1OC2(CCCC2)OC(=O)C1=Cc1c[nH]c2ccccc12	12.4
O=c1[nH]cnc2sc3c(c12)CCCCC3	10.8
O=c1[nH]c(SCCN2CCOCC2)nc(O)c1-c1ccccc1	9.5
Cc1ccc2nc(/C(C#N)=C\c3ccc(Oc4ccc(C(F)(F)F)cc4[N+](=O)[O-])cc3)[nH]c2c1	14.1
CCCN(CCC)C(=O)CSc1nc2c(sc(=S)n2-c2ccc(OCC)cc2)c(=O)[nH]1	12.3
COc1cccc(-c2cc(=O)c3cc(NC(=O)c4ccc(Cl)cc4)ccc3[nH]2)c1	6.5

Going on with the list.
compound	Biofilm kill mix
CN(C)C(=O)COC(=O)c1ccccc1OCC(=O)Nc1ccc(SC(F)F)cc1	11.9
Cn1c(CNC(=O)c2ccco2)nnc1SCC(=O)Nc1cccc(F)c1	-1.8
CCn1cc(C(=O)N2CCN(c3ccc(F)cc3)CC2)c2cc(OC)c(OC)cc2c1=O	18.4
COc1ccc(NC(=O)c2ccc(COc3ccc(C)cc3)o2)cc1	5.4
CCOC(=O)Cc1c(Sc2ccccc2)c2cc(C)ccc2n1C	22.7
COc1ccc(C(=O)NNC(=O)CN2CCC(n3nnc4cc(C)ccc43)CC2)cc1	10.8
N#CC1=C(N)NC(SCC(=O)c2ccc(Br)cc2)=C(C#N)C12CCCCC2	7.0
Cc1ccccc1C(=O)NNC(=O)/C=C/c1ccccc1	10.2
CCOC(=O)CNC(=O)N1CCCC(C(=O)c2cccc(Cl)c2)C1 (centres undefined)	18.3
CC(C)CCn1nnnc1CN1CCN(c2ccc(F)cc2)CC1	7.5
Cc1nn2c(NC(C)C)c3c(nc2c1-c1ccccc1)CCC3	16.9
O=S1(=O)N=C(N(CCO)/N=C/C=C/c2ccccc2)c2ccccc21	6.2
CN(C)CCCN(C(=O)COc1ccccc1)c1nc2ccc(Cl)cc2s1	17.4
C=CCOC(=O)C1=C[C@H](c2cn(C(C)=O)c3ccccc23)[C@@H](CCCO)[C@H](OCC)O1	18.6
COc1ccc(/C=N/OC/C(O)=C(\C#N)c2nc3ccccc3[nH]2)cc1OC	-0.6
CN1CCN(CCCNC(=S)Nc2ccc(F)c(Cl)c2)CC1	2.9
COc1ccc(Cl)cc1NC(=O)COC(=O)c1cc(NS(=O)(=O)c2cccs2)ccc1O	10.4
O=C(Nc1cn(-c2ccccc2)nc1-c1ccccc1)c1ccccc1	9.9
Cc1ccc(-c2cc(C(=O)O)n(-c3ccc(S(N)(=O)=O)cc3)n2)cc1	9.0
CSc1cccc(NCc2ccc([N+](=O)[O-])cc2)c1	-4.1
Cc1nc(S(=O)(=O)Nc2ccccc2C(=O)NCC2CC2)cn1C	26.4
Oc1ccc(/C=N/Nc2ccc(C(F)(F)F)cn2)cc1O	2.3
CCc1ccc(-c2nn(-c3ccccc3)cc2CSC(=N)N)cc1	10.8
COc1ccc(C(C)=O)cc1CN1CCCCC1	6.8

Look-ups from the results shown:
Value for `O=C(Nc1ccc2c(c1)OCO2)c1cc(-c2cccnc2)nc2ccccc12` in Biofilm kill mix: 12.2
Value for `Cc1ccc(N=C2NC(=O)CC(C(=O)Nc3ccc4c(c3)OCO4)S2)cc1` (centres undefined) in Biofilm kill mix: 13.9

(continued)
compound	Biofilm kill mix
Cn1c(SCC(=O)c2ccccc2)nnc1C1COc2ccccc2O1 (centres undefined)	7.7
O=C(N/N=C/c1ccco1)c1cc(-c2ccccc2)n[nH]1	7.0
O=C(N/C(=C\c1ccc([N+](=O)[O-])cc1)C(=O)N1CCCCC1)c1ccccc1	14.3
Cc1nc(=O)c(-c2ccccc2)c(C)n1-c1ccc(Br)cc1	15.2
CCCN1CCC(NC(=O)Nc2cccc3ccccc23)CC1	28.1
COc1cccc(NC(=O)N(CCN(C)C)C(C)c2cccnc2)c1 (centres undefined)	19.4
c1ccc2oc(-c3[nH]ncc3CN3CCSCC3)cc2c1	1.3
Cc1cc(C(=O)N2CCCC(C(=O)c3ccc4ccccc4c3)C2)n(C)n1 (centres undefined)	29.9
O=C(NCc1ccccc1)C1(c2cccc(F)c2)CCCC1	18.2
O=c1cc(CSc2nnnn2-c2ccc(O)cc2)nc2sccn12	11.1
Cc1ccc(Oc2c(F)c(F)nc(N3CCCC3)c2F)cc1	19.4
